Screens (PubChem)
Bfl-1 A1 inh: inhibitors of the anti-apoptotic protein A1, read as caspase activation. MEF A1-2A-BIM cells, Caspase-Glo 3/7 luminescence, 3 h; percent of clofoctol response, vehicle zero. caspase activation, % (test concentration not listed). 0.066% of 330,000 active;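 active = over half of replicate activation scores above 10%, or exactly half above 10 with the replicate mean above 10; inconclusive = replicate mean below 10 yet half the replicates above 10; inactive = over half of replicates below 10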;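 also: wells of about 30 µL received 50 nL stock; many hits fall short of the cut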
Calb FLC: affects C. albicans growth with fluconazole | C. albicans CaCi-2 (fluconazole-resistant clinical isolate) + fluconazole, Alamar Blue growth, 48 h | growth inhibition, % (test concentration not listed) | AID 1979 | 0.57% of 300,000 active;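 active = most replicates above 75%; inconclusive = exactly half above 75%; inactive = most below 75%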;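 also: all wells also contain fluconazole at 8 µg/ml as a sub-toxic cotreatment; 0% = median of DMSO wells and 100% = median of geldanamycin control wells; wells of about 8 µL received 7.5 nL stock; the first replicate is given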
B2AR ag: human beta-2 adrenergic receptor agonism by FAP | Am2.2-beta2AR cells, FAP receptor internalization, flow cytometry; reference of the scale not given here | response, % (concentration not given with the values) | AID 504454 | P07550 | 0.43% of 340,000 active;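 active = response above a set limit, near 3 SD of response in nonfluorescent compounds, cut at about 42% in these data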;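 also: stock transfer was 100 nL into about 11 µL; a reference agonist was the positive control; negative values mostly stem from fluorescent compounds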
Target sequence (P07550 whole entry, looked up): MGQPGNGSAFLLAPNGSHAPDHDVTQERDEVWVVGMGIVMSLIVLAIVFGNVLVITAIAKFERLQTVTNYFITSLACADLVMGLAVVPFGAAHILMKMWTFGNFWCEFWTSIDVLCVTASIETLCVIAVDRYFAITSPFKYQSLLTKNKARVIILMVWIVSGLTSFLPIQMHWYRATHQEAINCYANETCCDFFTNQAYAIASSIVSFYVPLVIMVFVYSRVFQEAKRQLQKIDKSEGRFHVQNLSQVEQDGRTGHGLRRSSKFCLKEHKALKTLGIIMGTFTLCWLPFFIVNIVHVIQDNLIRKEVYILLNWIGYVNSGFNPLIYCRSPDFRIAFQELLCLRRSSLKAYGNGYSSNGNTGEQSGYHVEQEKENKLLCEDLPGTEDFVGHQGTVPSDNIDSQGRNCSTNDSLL
Beta cell apopt: blocks beta cell apoptosis. INS-1E cytokine-induced death, ATP luminescence, 48 h; percent of positive-control rescue, neutral wells zero. protection from apoptosis, % (test concentration not listed). 0.8% of 300,000 active. AID 435005;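 active = all replicates at 75% or more, or half of them and the mean; inconclusive = half reach 75% but not the mean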;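 also: 0% = cytokine-treated negative control wells and 100% = positive control rescue; higher means more ATP so stronger rescue from cytokine killing; wells of about 40 µL received 100 nL stock; the first replicate is given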
ALR H2O2 inh: human ALR oxidase inhibition via reduced H2O2 | inhibition, % (concentration not given with the values) | P55789 | 3.8% of 290,000 active | purified ALR, DTT oxidation, H2O2 HRP-luminol luminescence;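 active = mean and each replicate at 75% or more; inconclusive = only one of the two met; inactive = neither met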;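 also: stock transfer was 7.5 nL into about 7.5 µL; 0% = neutral wells and 100% = wells with inactivated enzyme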
Target sequence (P55789 whole entry, looked up): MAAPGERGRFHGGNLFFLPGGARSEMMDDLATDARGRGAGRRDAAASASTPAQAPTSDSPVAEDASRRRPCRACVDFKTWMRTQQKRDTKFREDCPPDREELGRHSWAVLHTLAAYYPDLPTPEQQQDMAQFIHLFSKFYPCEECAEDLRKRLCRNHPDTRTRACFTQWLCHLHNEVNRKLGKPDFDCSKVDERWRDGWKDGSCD
T cruzi repl: blocks replication of Trypanosoma cruzi; 1.4% of 300,000 active; T. cruzi beta-gal in NIH3T3, luminescence, 90 h; inhibition, % (no concentration beside the values);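 active = mean inhibition across valid replicates above about 55%, limit read from the data; inconclusive = mean below that limit but half or more replicates reach it; inactive = mean below it, under half of replicates reach it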;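 also: signal also drops with host cell toxicity which is not excluded here; 0% = plate median of DMSO wells and 100% = zero luminescence signal; higher percent means less beta-gal luminescence so fewer parasites; stock transfer was 50 nL into about 50 µL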
LANA-H2A inh: blocks KSHV LANA binding to histone H2A/H2B; Q9QR71; cell-free LANA-H2A/H2B peptide, fluorescence polarization; inhibition, % (test concentration not listed); 0.6% of 320,000 active; AID 2629; in the data active = inhibition mostly above about 10%, no sharp cut-off; inactive = mostly below about 6.7%;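 also: stock transfer was 7.5 nL into about 10 µL; 0% = median of vehicle wells and 100% = median of positive control wells; one replicate is shown; the record names a cut of 25% in any replicate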
rRNA inh HTS: selective bacterial rRNA inhibition in E. coli | E. coli WT GFP vs humanized-ribosome RFP mutants, fluorescence, 24 h; hits give low values; DMSO median 0, no signal -100 | GFP signal change (wild-type ribosome), % (no concentration beside the values) | 1.6% of 350,000 active;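 active = significant combined selectivity score with lowered wild-type GFP, culture density cut under 30%, mutant RFP and density less affected; inactive = any of these conditions unmet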; also: one replicate is shown; some compounds called inactive have numbers as strong as hits
rRNA inh HTS OD600: recorded beside rRNA inh HTS, whose call it bears; OD600 change, %; measured here: OD600 growth;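 optical density of the mix in the first replicate; 0 = DMSO median and -100 = no signal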
rRNA inh HTS RFP: further read-out of rRNA inh HTS, marked with its call; RFP signal change, %; measured here: RFP humanized mutant strains;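 first replicate; 0 = DMSO median and -100 = no signal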
The depositor's hits bear a star; ? = inconclusive; . = no result given. These rows are one share of the data; rates above refer to the full screens.

SMILES | Bfl-1 A1 inh | Calb FLC | B2AR ag | Beta cell apopt | ALR H2O2 inh | T cruzi repl | LANA-H2A inh | rRNA inh HTS | rRNA inh HTS OD600 | rRNA inh HTS RFP
COC(=O)c1cc(C)sc1NC(=O)C1CC(=O)NN1Cc1ccccc1 (stereo not drawn) | 0.0 | -4 | -1 | 0 | -7 | -4 | 3.8 | -32* | -16* | -0.3*
Cc1nn(Cc2ccccc2)c(C)c1NC(=O)CSc1nnc(-c2cc(Cl)ccc2O)n1C | 0.6 | 1 | -7 | . | 12 | 15 | 6.9 | -20* | 0.0* | 1.1*
CCC/C(O)=C1\C(=O)CC(C)(C)CC1=NCc1ccccc1 | 1.0 | -6 | -5 | 2 | 3 | 19 | -2.2 | -22* | -4.1* | -2.0*
CC12CCC(=O)N1C(C(=O)OCC(=O)Nc1sccc1C#N)CS2 (stereo not drawn) | 0.5 | -14 | -4 | -5 | -2 | -5 | 5.5 | . | . | .
S=C(Nc1ccc(N2CCOCC2)cc1)Nc1ccc2nc(-c3ccco3)c(-c3ccco3)nc2c1 | 0.2 | -5 | -20 | -5 | 17 | -5 | 2.6 | . | . | .
COc1ccc(Cc2nnc(NC(=O)c3cc(OC)c(OC)c(OC)c3)s2)cc1 | 0.4 | 10 | 23 | 1 | -7 | -5 | 0.5 | -14 | -36 | 17
Cn1nc(-c2ccc(Cl)cc2)cc1NC(=O)CSCC(=O)O | -1.4 | 1 | -3 | -2 | -1 | 1 | 2.0 | -2 | 4 | -1.5
Cc1ccc(C(=O)OCC(=O)NC(C)C2CC3CCC2C3)cc1N (stereo not drawn) | -0.1 | . | -2 | -3 | 1 | . | 4.1 | -7 | -19 | 0.9
CCN(CC)S(=O)(=O)c1ccc(C(=O)NCC(c2ccc(OC)cc2)N2CCOCC2)cc1 (stereo not drawn) | 1.5 | -14 | -4 | -2 | -5 | 0 | 0.8 | 3 | -4 | 0.2
CC(OC(=O)c1cc(=O)[nH]c2ccccc12)C(=O)Nc1ccccc1F (stereo not drawn) | -0.3 | 6 | 4 | 3 | -3 | -7 | 4.5 | -2 | 13 | 2.1
CCCCn1c(=N)n(CC(=O)O)c2ccccc21 | 0.2 | 3 | -1 | -2 | -8 | -4 | -10 | 23 | 15 | 0.1
C=CCn1c(=N)n(CC(=O)c2ccc(Cl)cc2)c2ccccc21 | 1.6 | 13 | -4 | -5 | -14 | 11 | 6.6 | -14 | -18 | 2.1
COc1ccc(NC(=O)CNCc2ccc(Cl)cc2)cc1S(=O)(=O)N1CCOCC1 | 0.6 | . | -4 | 1 | -2 | . | -2.6 | -1 | 5 | 3.0
CCCCCn1ccc(=N)cc1 | -1.0 | -1 | 9 | 72 | -3 | -19 | -0.8 | . | . | .
CCC(C(=O)NCCc1ccco1)n1nc(C)c2c(C)n(-c3ccccc3)nc2c1=O (stereo not drawn) | -0.4 | 18 | -3 | -7 | -2 | -12 | 1.6 | 4 | 5 | -4.4
CCOCC(=O)Nc1ccc(S(=O)(=O)Nc2ncccn2)cc1 | 1.1 | -14 | -1 | . | -11 | -6 | -1.6 | . | . | .
O=C(NCCCc1ccccc1)C(=O)NCC1OCCN1S(=O)(=O)c1cc(F)ccc1F (stereo not drawn) | -0.4 | -18 | -9 | 0 | . | 13 | -3.1 | 1 | -7 | 1.4
Cc1c(C(=O)Nc2ccc3c(c2)OCO3)sc2nc(-c3ccccc3)cn12 | 0.0 | 6 | 2 | 7 | -8 | -27 | 3.6 | . | . | .
COCCN1C(=O)CS/C1=C(/C#N)C(=O)NCc1ccco1 | -0.2 | 10 | -2 | 0 | -2 | -17 | 5.8 | 12 | 19 | 50
CC1=C([N+](=O)[O-])C(c2ccccc2Cl)NC(=O)N1 (stereo not drawn) | 2.6 | -4 | -2 | -2 | . | 8 | 0.2 | -21 | -11 | 2.8
O=C(COc1ccc([N+](=O)[O-])cc1)NNC(=O)Nc1cccc(F)c1 | -0.6 | -2 | 1 | -5 | 6 | 1 | -0.4 | -1 | 3 | 1.1
O=C(O)c1ccccc1NS(=O)(=O)c1cccc(NS(=O)(=O)c2cc(Br)ccc2Br)c1 | 1.0 | . | -1 | 3 | 7 | . | -0.5 | 8 | -18 | 9.9
COc1cc(/C=C(\NC(C)=O)C(=O)O)cc(OC)c1OC | 0.6 | 8 | 4 | -1 | -13 | 6 | 1.3 | 10 | 2 | -4.0
CCCCn1nnnc1NCc1ccc(N(CC)CC)cc1 | 0.5 | -5 | 1 | -3 | 99* | 7 | -1.4 | . | . | .
O=C(NCCc1ccccc1)C1CCCN(C(=O)Nc2ccc(F)cc2)C1 (stereo not drawn) | 1.0 | -1 | -10 | 9 | -3 | 1 | 0.1 | -2 | 9 | -0.6
CCOc1ccccc1/C=N/NC(=O)c1cc(C(C)C)[nH]n1 | 0.7 | 24 | -3 | 1 | . | -9 | 1.8 | 5 | 14 | -0.7
CCOC(=O)N1CCN(C(=O)c2ccc(CNS(=O)(=O)c3ccc(OC)cc3)cc2)CC1 | 1.3 | 0 | -1 | -9 | -20 | -9 | -5.1 | . | . | .
O=C(CC1CCCCC1)NCCCN1CCOCC1 | 0.7 | 1 | 1 | -6 | -2 | -3 | 8.2 | 11 | 16 | 1.3
COc1ccc2c(c1OC)C(=O)N1c3cccc(Cl)c3C(=O)OC21 (stereo not drawn) | 0.0 | 3 | 1 | -5 | -1 | -12 | 8.8 | . | . | .
N#Cc1nc(-c2cccc3ccccc23)oc1NCCN1CCOCC1 | 0.7 | 31 | 2 | 10 | 70 | -6 | -2.9 | -58 | -78 | -32
CCOc1ccc(C(=O)NCC(=O)N2CCC3(CC2)NCCc2[nH]cnc23)cc1 | -0.2 | -1 | 4 | -8 | -6 | -17 | 2.5 | 0 | 8 | -0.1
N/C(=N\O)c1ccccc1N1CCCCC1 | 0.9 | -2 | -2 | -2 | 90* | -15 | 5.2 | 7 | -5 | -3.2
CC1(C)CC(NC(=O)C(Cl)(Cl)Cl)CC(C)(C)N1 | -0.2 | -4 | -11 | 0 | -7 | -9 | 2.3 | . | . | .
O=C(NCc1ccc(Cl)cc1)c1noc2c1CCCC2 | ? | -4 | -11 | -3 | -4 | 9 | -1.5 | . | . | .
CCOc1ncccc1C(=O)OCc1ccccc1 | -0.5 | -4 | 9 | 3 | -7 | -11 | 2.1 | 10 | 3 | 3.4
COc1ccc(N2CCN(CC(=O)Nc3ncc(C)s3)CC2)cc1 | 0.6 | 14 | 4 | -1 | . | 5 | -3.9 | 10 | 9 | 1.6
O=C1CN(C(=O)N[C@@H](Cc2ccccc2)C(=O)N[C@@H](C(=O)O)c2ccccc2)c2ccccc2N1 | -0.8 | . | -10 | -14 | -2 | -12 | -2.7 | 4 | 8 | -1.5
CC(C)Cc1cc(C(=O)N2CCCC(CO)(Cc3ccc(F)cc3)C2)no1 (stereo not drawn) | 0.0 | 0 | 8 | -1 | -8 | 4 | -10 | 2 | -1 | -1.3
O=C(NCc1ccc2c(c1)CCO2)Nc1ccccc1 | -4.0 | -5 | 7 | -4 | -3 | -13 | 3.2 | 3 | -10 | -1.5
CCN1CCN(c2cc(C)c3cc(NC(=S)N4CCCC4)ccc3n2)CC1 | -0.3 | -8 | -1 | -4 | 47 | -6 | -6.1 | -4 | 0 | -2.1

Next section; it opens with the 3 that closed the last part.
SMILES | Bfl-1 A1 inh | Calb FLC | B2AR ag | Beta cell apopt | ALR H2O2 inh | T cruzi repl | LANA-H2A inh | rRNA inh HTS | rRNA inh HTS OD600 | rRNA inh HTS RFP
CC(C)Cc1cc(C(=O)N2CCCC(CO)(Cc3ccc(F)cc3)C2)no1 (stereo not drawn) | 0.0 | 0 | 8 | -1 | -8 | 4 | -10 | 2 | -1 | -1.3
O=C(NCc1ccc2c(c1)CCO2)Nc1ccccc1 | -4.0 | -5 | 7 | -4 | -3 | -13 | 3.2 | 3 | -10 | -1.5
CCN1CCN(c2cc(C)c3cc(NC(=S)N4CCCC4)ccc3n2)CC1 | -0.3 | -8 | -1 | -4 | 47 | -6 | -6.1 | -4 | 0 | -2.1
CCOc1ccc(NC(=O)COc2nsnc2N2CCCCC2)cc1 | 0.5 | -7 | -8 | 3 | -2 | 25 | 1.8 | . | . | .
NC(=S)NNC(=O)COc1ccccc1O | 0.3 | 4 | -4 | -5 | 89* | -5 | -2.8 | 12 | 1 | -3.8
Cc1cccc(OC(=O)c2ccncc2)c1C | 0.4 | 9 | -3 | -5 | 6 | -3 | 2.3 | 9 | 9 | 0.8
CN(CC(=O)NC1CC1)S(=O)(=O)c1ccc(Br)cc1 | -0.2 | -5 | -12 | -3 | -2 | -8 | -1.2 | 13 | 22 | 0.7
Cn1c(=O)c(S(=O)(=O)C(C)(C)C)c(O)c2ccccc21 | 1.1 | -8 | -4 | -1 | 0 | -16 | 5.1 | . | . | .
O=C(NCCc1nnc2ccc(NCc3ccc(Cl)cc3)nn12)c1ccccc1 | 2.8 | -11 | -3 | 2 | 27 | -7 | 0.0 | 2 | 3 | -10
Cc1ccc(C)c(NC(=O)C2COc3ccccc3O2)c1 (stereo not drawn) | -0.4 | -7 | 11 | . | -20 | -8 | 1.4 | 7 | 1 | -0.3
NC(=O)c1ccc(NC(=O)CSc2nnc(-c3ccccn3)n2N)cc1 | 1.1 | 2 | 2 | 2 | 12 | -8 | -1.3 | 20 | 16 | 3.4
O=C(NC1CCCCC1)C1CCN(c2ncccn2)CC1 | 0.4 | -20 | 2 | -2 | -2 | 12 | -4.7 | 3 | 3 | 1.4
Cc1ccc(NC(=O)COS(=O)c2ccc(C)cc2)cc1 (stereo not drawn) | 0.8 | 2 | -4 | -1 | -9 | -2 | -0.5 | -4 | -9 | -0.7
CN(C)S(=O)(=O)c1cccc(-c2nn(-c3ccccc3)cc2/C=C2\SC(=S)N(CC(=O)O)C2=O)c1 | 0.8 | 1 | 29 | -4 | 96* | -15 | 1.5 | 1 | -10 | 13
O=S(=O)(Nc1ccc(Cl)cn1)c1cnc(Cl)c(Br)c1 | 0.3 | 0 | -3 | 9 | 11 | 11 | -3.5 | 17 | 4 | 1.6

Looked up by compound from above (4):
SMILES | Bfl-1 A1 inh | Calb FLC | B2AR ag | Beta cell apopt | ALR H2O2 inh | T cruzi repl | LANA-H2A inh | rRNA inh HTS | rRNA inh HTS OD600 | rRNA inh HTS RFP
CCOc1ccc(NC(=O)COc2nsnc2N2CCCCC2)cc1 | 0.5 | -7 | -8 | 3 | -2 | 25 | 1.8 | . | . | .
Cc1cccc(OC(=O)c2ccncc2)c1C | 0.4 | 9 | -3 | -5 | 6 | -3 | 2.3 | 9 | 9 | 0.8
O=S(=O)(Nc1ccc(Cl)cn1)c1cnc(Cl)c(Br)c1 | 0.3 | 0 | -3 | 9 | 11 | 11 | -3.5 | 17 | 4 | 1.6
O=C(NCCc1nnc2ccc(NCc3ccc(Cl)cc3)nn12)c1ccccc1 | 2.8 | -11 | -3 | 2 | 27 | -7 | 0.0 | 2 | 3 | -10
